# HSD17B inh = blocks hydroxysteroid 17-beta dehydrogenase activity; Q99714; Potency, µM (titrated, usually from 57.1 µM), for inactives: at the top dose activity change, negative = inhibition, most hits filed as inhibitors; recombinant HSD17B10, NADH fluorescence kinetic; many of its hits are not listed in these tables; actives 7.6% (n = 75,000); AID 893; active = well fitted inhibition curve with a large enough effect; inconclusive = small, poorly fitted or top-dose-only effect; inactive = no such curve, though single readings can be large or run the other way;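 note: the protocol describes HADH2 (HSD17B10) and not the HSD17B4 of the title; nearly all actives have a fitted effect of over 70% in size; most hits overshoot -100% by far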
#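 His-tagged E. coli-expressed HADH2 at 20 nM in 100 mM Tris-HCl pH 9.0 with 0.01 % Tween-20, preincubated 15 min with compound at room temperature. Reaction with 1 mM NAD+ and 90 uM beta-hydroxybutyryl coenzyme A; NADH fluorescence (360/450 nm) read kinetically over 4 min, last minus first point.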
# Active calls of the source: *; ? = inconclusive; & = joins results of further samples; [ ] = another dose, or the depositor's remark. % is set by controls: 0 for no effect and ±100 for the full control effect; potency is the fitted concentration of half-maximal effect. The list is partial; count on the stated rates, not on these rows.
SMILES,HSD17B inh
CCn1c(C)nc2cc(-c3nc4n(n3)Cc3ccccc3-4)ccc21,25µM*
CSc1ccc(Cl)c(C(=O)OCC(=O)N2CC(C)OC(C)C2)c1 (stereo not drawn),-19%
Cc1nc2c(ccc3nc(NC(=O)c4ccc(S(=O)(=O)N(C)C)cc4)sc32)s1,6%
CCCCOC(=O)CSc1nnc(-c2cc(OC)c(OC)c(OC)c2)o1,1%
CC(=O)c1sc(NC(=O)C=C(C)C)nc1C,-9%
O=C(CCC(=O)OCC(F)(F)C(F)F)NCc1ccccc1,0%
CCOC(=O)NC(Nc1nnc(SCC)s1)(C(F)(F)F)C(F)(F)F,5%
CC1CCN(c2nncc3ccccc23)CC1,-3%
COc1ccc(NC(=O)C2C(=O)NC3(C)CC2c2ccccc2O3)cc1 (stereo not drawn),1%
CCOC(=O)c1ccc(NC(=O)CSc2n[nH]c(-c3ccncc3)n2)cc1,-14%
CCN(CC)S(=O)(=O)c1cc(C(=O)Oc2ccccc2OC)ccc1OC,3%
CCCS(=O)(=O)n1nc(-c2ccc(OC)cc2OC)cc1N,4%
COc1cc(C2C(=O)N(C3CCCC3)CC(=O)N2Cc2ccco2)ccc1OC(C)C (stereo not drawn),1%
COc1ccc(NC2CCN(C3CC(=O)N(c4ccc(F)c(Cl)c4)C3=O)CC2)cc1 (stereo not drawn),-26%
COCC(C)NC(=O)c1cc(-c2cccc(OC)c2)on1 (stereo not drawn),-3%
O=C(CCCc1nc2ccccc2s1)N1CCN(S(=O)(=O)c2cccs2)CC1,-17%
Cc1oc(-c2ccc3c(c2)OCCO3)cc1C(=O)O,?
CCC/C=C(\CCC)C(NC(=O)c1ccccc1)c1ccc(C(=O)OC)cc1 (stereo not drawn),0%
NC(N)=NC(N)=Nc1ccc(C(=O)O)cc1,1%[11.4 µM]
N#CN=C1SCCS1,3%
CC12CCC(=O)N1c1ccccc1C(=O)N2c1ccccc1 (stereo not drawn),8%
CCCCNC(NCCCC)=C(S(=O)(=O)CC)S(=O)(=O)CC,-3%
CCOC(=O)Cn1nc(-c2ccc(Cl)cc2)cc1N,-12%
CN(C)c1ccc(-c2ccncc2)cc1,1%

# Random excerpt: two entries already listed.
SMILES,HSD17B inh
CC1CCN(c2nncc3ccccc23)CC1,-3%
COc1ccc(NC(=O)C2C(=O)NC3(C)CC2c2ccccc2O3)cc1 (stereo not drawn),1%

# Other records follow:
SMILES,HSD17B inh
Cn1c(=O)oc2cc(S(=O)(=O)NCCCN3CCCC3=O)ccc21,14%
CCOc1ccccc1N(CC(=O)Nc1ccccc1C(=O)NCc1ccco1)S(C)(=O)=O,-8%
Cc1cc(NC(=O)CSc2nnc(-c3ccco3)n2Cc2ccco2)no1,-2%
CCCCCC1NC(=O)NC1CCCCCC(=O)O (stereo not drawn),2%
Cc1cnc(CNc2nc(-c3ccccc3Cl)nc3ccccc23)cn1,12%
O=C(CCc1ccccc1)NC1CCSC1=O (stereo not drawn),-1%
O=C(CC1SC(N2CCCCC2)=NC1=O)Nc1cccc(C(=O)O)c1 (stereo not drawn),-6%
COc1cc(-c2noc(CCC(=O)Nc3cccnc3)n2)cc(OC)c1OC,4%
CCCOC(=O)c1ccc(NS(=O)(=O)c2cccs2)cc1,-5%
O=C(CSc1nnc(-c2ccccn2)n1-c1ccccc1)Nc1ccc2c(c1)OCO2,2%
O=C(CCN1C(=O)C2C3C=CC(C3)C2C1=O)N1CCN(c2ccccc2F)CC1 (stereo not drawn),6%
CCN(Cc1cc2cc(OC)ccc2[nH]c1=O)C(=O)Cc1ccc(OC)cc1,?
COC(=O)N1C2(C=CC1(C)C(=O)NCc1ccc(N(C)C)cc1)CCCCC2 (stereo not drawn),11%
c1cncc(CNc2ccnc(-c3cccnc3)n2)c1,-27%
CCOc1cccc2cc(C(=O)N3CCN(C/C=C/c4ccccc4)CC3)c(=O)oc12,-21%
COc1ccc(Cl)cc1Nc1cc(C)nc2nc(C)nn12,-2%
COc1ccc(S(=O)(=O)NCc2ccccc2Cl)cc1OC,9%
COc1ccc2c(c1)OCC(Cc1ccc(OC)c(OC)c1)C2O (stereo not drawn),-10%&2%
CCOC(=O)C1CCN(C(=O)Cc2ccc(OC)c(OC)c2)CC1,3%
O=C(Cc1cccs1)Nc1ccc(-c2nnn(CC(=O)N3CCOCC3)n2)cc1,?
Cc1ccc(CN(C(=O)c2c(F)cccc2F)C2CC(C)(C)NC(C)(C)C2)o1,10%
Cc1nn(-c2ccccc2)c(C)c1P(=O)(c1ccccc1)N(C)C (stereo not drawn),-6%
COc1cccc(-n2c(Cc3cc(=O)[nH]c(=O)[nH]3)nnc2SCC(=O)N2CCC(C)CC2)c1,10%
Clc1ccc(Cn2ncc3c(N4CCCCC4)ncnc32)c(Cl)c1,9%
CCOc1ccc(-c2nnc3sc(COc4ccc(C)cc4)nn23)cc1,-1%
O=C(Cn1nnc(-c2ccccc2)n1)Nc1ccccc1N1CCOCC1,3%
CC(C)c1nc2ccccc2c2nnc(SCC(=O)NCc3ccco3)n12,2%
COc1cccc(OC)c1C(=O)Nc1ccccc1C(=O)N1CCOCC1,-28%
CCC(C)C(NC)C(=O)O (stereo not drawn),1%
CCCCn1nnnc1SCC(=O)Nc1ccc2c(c1)OCO2,-8%
CC(=O)Nc1ccc(C(=O)CCl)cc1,-2%
FC(F)(F)c1cnc(Oc2ccc(-c3nnco3)cc2)c(Cl)c1,-5%
Nc1cc(C(=O)OCC(=O)NCC2CCCO2)ccc1Cl (stereo not drawn),?
Cc1cccc(N(C)C(=O)COc2cc(=O)n(C)c3ccccc23)c1,-3%
CN(C)CCCOC(=O)c1ccc(Cl)cc1,12%
CC(OC(=O)C(NC(=O)c1ccco1)C(C)C)C(=O)Nc1ncc(Cl)cc1Cl (stereo not drawn),-4%
CCS(=O)(=O)N1CCC(C(=O)NCCc2ccccc2)CC1,1%
CC1(C)CC(=O)C2=C(C1)Oc1ncn3nc(-c4cccnc4)nc3c1C2c1ccccc1 (stereo not drawn),-6%
COc1ccc(CC(=O)Nc2cc(C)ccn2)cc1,-13%
CCCc1nnc(SCC(=O)N2CCCC(C)C2)n1CCCOC (stereo not drawn),1%
CCOC(=O)N1CCN(C(=O)c2ccc(Cl)c(S(=O)(=O)Nc3ccccc3)c2)CC1,1%
CCOC(=O)C1CCN(C(=O)c2cc3cc4cc(OC)ccc4nc3o2)CC1,25µM*
O=C(NCCN1CCCC1)C1CC(=O)N(C2CCCCC2)C1 (stereo not drawn),1%
COc1cccc(CNC(=O)CCS(=O)(=O)c2cccc3nsnc23)c1,-4%
CCC(Cl)CC(Cl)C(Cl)C(Cl)C(Cl)C(C)Cl (stereo not drawn),-1%
COc1ccc(-c2cc3ccc(OCc4nn[nH]n4)cc3oc2=O)cc1,25µM*
N[C@H](C(=O)O)c1cccc(O)c1,12%&4%
NC(=O)c1cccc([N+](=O)[O-])c1,-1%
O=C(CN1C(=O)C2C3C=CC(C3)C2C1=O)Nc1ccc2nccnc2c1 (stereo not drawn),32µM*
O=C(COn1nnc2ccccc21)NCC1CCCCC1,-1%
CN(C)S(=O)(=O)N1CCN(S(=O)(=O)c2ccccc2)CC1,7%
COC(=O)c1ccc(NC(=O)C2C3C=CC(O3)C2C(=O)O)cc1 (stereo not drawn),2%
Cc1cc(N2C(=O)CCC2=O)n(-c2ccccc2)n1,11%
COc1cccc(Nc2ncc3nc(C)c(=O)n(-c4ccccc4)c3n2)c1,-2%
Cc1cccc(NC(=O)CCCCCN2C(=O)c3ccccc3C2=O)n1,4%
CCCn1nnc(NC(=O)c2sc3ccccc3c2Cl)n1,7%
CCC1(C(=O)OC)NC(c2cccc(F)c2)C2C(=O)N(C)C(=O)C21 (stereo not drawn),2%
CCOC(=O)c1c(C)oc2c1c(C=NC1CCS(=O)(=O)C1)c(O)c1ccccc12 (stereo not drawn),0%
CC(C)c1ccccc1OCCCCCNCCO,1%
CCc1ccccc1OCc1nnc(N)s1,1%
# Further structures
SMILES,HSD17B inh
COc1ccccc1-n1c(SCC(=O)N(C)C2CCS(=O)(=O)C2)nc2ccccc2c1=O (stereo not drawn),6%
Cc1ccc(CC(=O)NCC(C)C)cc1,-1%
O=C(/C=C/c1ccc(O)cc1)c1c(O)cc(O)cc1O,-13%
COc1ccc(Cl)cc1NC(=O)CC(C)=O,5%
CCCOc1ccc(C2C(C(=O)c3ccco3)=C(O)C(=O)N2CCCn2ccnc2)cc1 (stereo not drawn),7%
COC(=O)Nc1ccc(S(=O)(=O)N(C)C)cc1,1%
CC(C)CN1CC[C@@]2(CCCN(S(=O)(=O)c3ccccc3)C2)C1,4%
Nc1nc(-n2cnnc2)nn1-c1ccccc1,2%
COC(=O)C(CCSC)NC(=O)Cn1ncc2c(=O)oc3ccc(C)cc3c21 (stereo not drawn),6%
COC(=O)N1[C@H](Cc2ccccc2)C=C[C@]1(C)C(=O)NCc1ccccn1,0%
Cc1ccccc1NS(=O)(=O)c1ccc(NC(=O)c2ccco2)cc1,3%
CCCCC(CC)CN=C(N)NC(N)=NCCCCCCN=C(N)NC(N)=NCC(CC)CCCC (stereo not drawn),0%
Cc1ccccc1-c1nccc(Nc2ccc(F)cc2)n1,-12%
CN1CCN(CCCNC(=O)c2cn(C)c3ccc(S(=O)(=O)N(C)C)cc3c2=O)CC1,-9%
Cc1cc(C)cc(N(CC(=O)Nc2cccc(C)n2)S(=O)(=O)c2c(C)noc2C)c1,-4%
COCCN(C(C)=O)c1nnc(-c2cnccn2)s1,?
O=C(CCn1cccc1)NCc1ccccc1,6%
CCCN(CCC)CCCNC(=O)c1cn(CCOC)c(=O)c2c1c1ccccc1n2C,4µM*
C=C(C)CSc1nc(N)c2c(C)c(C)sc2n1,12%
CCCCCNC(=O)CCCCn1c(=O)[nH]c2cc(OCC)c(OCC)cc2c1=O,?
O=C(CCC1COc2ccccc2O1)Nc1cccnc1 (stereo not drawn),9%
CCS(=O)(=O)N1CCCC(C(=O)NCc2ccc(C)cc2)C1 (stereo not drawn),3%
Cc1nnc(NC(=O)C2COc3ccccc3O2)s1 (stereo not drawn),3%
O=C1CC(N2CCSCC2)C(=O)N1CCc1ccccc1 (stereo not drawn),8%
O=S(=O)(NCCc1csc(-c2cccnc2)n1)c1cccs1,-12%
N[C@H](C(=O)O)[C@H](OCc1ccccc1)C(=O)O,-1%
COC(=O)[C@@]1(Cc2ccc(OC)cc2)[C@H]2c3cc(C(=O)N4CCCC4)n(CCc4c[nH]c5ccccc45)c3C[C@H]2CN1C(=O)c1ccccc1,20%
CC1(C)CC(=O)C=C(Nc2ccc3c(c2)OCCO3)C1,-1%
CNc1ccnc(-c2ccccc2C)n1,5%
COc1cc(NC(=O)CN2C(=O)NC(C)(CCC(C)C)C2=O)cc(OC)c1 (stereo not drawn),3%
CSc1nnc(-c2ccccc2)n1N,3%
CCn1c(SC)nnc1-c1nnc(SC)n1CC,-7%
Cc1sc2c(=O)n3c(nc2c1C(=O)NCCCN1CCOCC1)CCCCC3,4%
CCCCn1c(SCC(=O)Nc2cccc(C)n2)nnc1-c1ccco1,-5%
COc1cccc(-c2cc(C(=O)Nc3cc(C)n(Cc4ccc(Cl)cc4)n3)no2)c1,101%[activator]
O=C1CC(N2CCN(Cc3ccccc3)CC2)C(=O)N1c1ccccc1 (stereo not drawn),5%
Cc1ccc(-c2csc3ncn(-n4c(C)ccc4C)c(=O)c23)o1,-12%
O=C(CCCOc1ccccc1)Nc1ccc(S(=O)(=O)N2CCOCC2)cc1,3%
C[C@]1(c2ccccc2)O[C@@H]2C[C@@H]3[C@@H]4CCC5=CC(=O)C=C[C@@]5(C)[C@]4(F)[C@H](O)C[C@]3(C)[C@@]2(C(=O)CO)O1,1%[11.4 µM]
Cc1nc2ncnn2c(C)c1CCC(=O)N1CCN(C(=O)c2ccco2)CC1,3%
CS(=O)(=O)N1CCC(C(=O)Nc2ccc(F)cc2F)CC1,5%
Cc1cccc(NCN2C(=O)c3ccncc3C2=O)n1,?
CCN(C(=O)COc1cc(=O)n(CC)c2ccccc12)c1cccc(Cl)c1,2%

# Among those listed so far, these contain an aryl thioether with sulfur outside any ring.
SMILES,HSD17B inh
CSc1ccc(Cl)c(C(=O)OCC(=O)N2CC(C)OC(C)C2)c1 (stereo not drawn),-19%
CCCCOC(=O)CSc1nnc(-c2cc(OC)c(OC)c(OC)c2)o1,1%
CCOC(=O)NC(Nc1nnc(SCC)s1)(C(F)(F)F)C(F)(F)F,5%
CCOC(=O)c1ccc(NC(=O)CSc2n[nH]c(-c3ccncc3)n2)cc1,-14%
Cc1cc(NC(=O)CSc2nnc(-c3ccco3)n2Cc2ccco2)no1,-2%
O=C(CSc1nnc(-c2ccccn2)n1-c1ccccc1)Nc1ccc2c(c1)OCO2,2%
COc1cccc(-n2c(Cc3cc(=O)[nH]c(=O)[nH]3)nnc2SCC(=O)N2CCC(C)CC2)c1,10%
CC(C)c1nc2ccccc2c2nnc(SCC(=O)NCc3ccco3)n12,2%
CCCCn1nnnc1SCC(=O)Nc1ccc2c(c1)OCO2,-8%
CCCc1nnc(SCC(=O)N2CCCC(C)C2)n1CCCOC (stereo not drawn),1%
COc1ccccc1-n1c(SCC(=O)N(C)C2CCS(=O)(=O)C2)nc2ccccc2c1=O (stereo not drawn),6%
C=C(C)CSc1nc(N)c2c(C)c(C)sc2n1,12%
CSc1nnc(-c2ccccc2)n1N,3%
CCn1c(SC)nnc1-c1nnc(SC)n1CC,-7%
CCCCn1c(SCC(=O)Nc2cccc(C)n2)nnc1-c1ccco1,-5%
